Screening data from PubChem.
PD-1 reversal: reversal of PD-1 mediated T-cell inhibition. primary human CD4 T cells, PD-L1 beads, CellTiter-Glo 96 h. activation, % (no concentration beside the values). 29,000 tested, under 10 active. AID 2316;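 active = replicate mean of 50% or more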;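 note: 0% = median vehicle wells and 100% = positive control; 100 nL library stock added to about 50 µL; numbers are from one replicate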
YB-1 expr inh: YB-1 expression inhibition | U2OS, qRT-PCR YB-1 vs CDIP delta delta Cp, 16 h; active compounds read high; zero = DMSO, each unit about twofold | delta delta Cp (YB-1 minus CDIP) (no concentration beside the values) | 30,000 compounds, 0.37% hits | AID 434959;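 active = delta delta Cp rounded down to an integer at or above 3, about 3 SD of DMSO wells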;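 note: higher means less YB-1 transcript or more CDIP transcript relative to DMSO; stock transfer was 100 nL into about 100 µL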
Shh pathway inh: blocks Sonic Hedgehog signaling; Shh-LIGHT2 Gli-luciferase reporter, 30 h; inhibition, % (concentration not given with the values); 22,000 compounds, 2.1% hits;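 active = replicate mean of 65% or more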;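 note: pathway switched on by Shh-conditioned medium diluted 1 in 25 in low serum; 100 nL library stock added to about 40 µL; 0% = median of neutral wells and 100% = positive control level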
MITF inhib: blocks MITF activity. TRPM1 promoter luciferase, luminescence, 24 h. inhibition, % (concentration not given with the values). 37,000 compounds, 0.28% hits. AID 2240;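 active = most replicates at 85% or more, or half of them and the mean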;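 note: human melanocyte line stably carrying TRPM1 promoter luciferase reporter; 0% = vehicle wells and 100% = a positive control; the first replicate is given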
An asterisk follows results filed as active; . = not tested or not shown. An excerpt; count on the stated rates, not on these rows.

Values run as follows: PD-1 reversal	YB-1 expr inh	Shh pathway inh	MITF inhib
#1 CC(=O)N[C@@H](Cc1ccccc1)C(=O)NN
    1.6	0.121	-12.8	-2.1
#2 C[C@@H]1CN([C@@H](C)CO)C(=O)c2cc(NS(=O)(=O)c3ccccc3)ccc2O[C@H]1CN(C)Cc1ccncc1
    -0.5	0.0596	4.8	-2.4
#3 C[C@H](CO)N1C[C@H](C)[C@@H](CN(C)C(=O)NC2CCCCC2)Oc2c(NC(=O)NC3CCCCC3)cccc2C1=O
    1.0	-0.0683	-31.3	-0.8
#4 Cc1ccc(S(=O)(=O)N(C)C[C@H]2Oc3ccc(NC(=O)Cn4cnnn4)cc3CC(=O)N([C@H](C)CO)C[C@H]2C)cc1
    -2.7	-8.26	-12.9	-7.6
#5 C[C@H](CO)N1C[C@H](C)[C@@H](CN(C)Cc2ccc(Oc3ccccc3)cc2)Oc2ccc(NC(=O)Cc3ccccc3)cc2C1=O
    -1.1	0.249	.	6.2
#6 C[C@H]1CN([C@@H](C)CO)C(=O)c2cccc(NC(=O)c3ccc(-c4nccs4)cc3)c2O[C@@H]1CN(C)C(=O)Nc1ccccc1
    -0.2	0.269	-12.2	-6.5
#7 C[C@@H]1CN([C@@H](C)CO)C(=O)c2cccc(NC(=O)NC3CCCCC3)c2O[C@H]1CN(C)Cc1ccc(C(F)(F)F)cc1
    -6.8	0.0407	-33.7	21.0
#8 CC(C)NC(=O)N(C)C[C@@H]1Oc2ccc(NC(=O)c3ccncc3)cc2CC(=O)N([C@@H](C)CO)C[C@@H]1C
    0.3	0.354	-8.9	-2.8
#9 COCCSc1nnc(NC(=O)c2sc3ccccc3c2Cl)s1
    0.9	.	.	-9.1
#10 C[C@@H]1CN([C@@H](C)CO)C(=O)c2cc(NC(=O)C3CCCCC3)ccc2O[C@H]1CN(C)Cc1ccc(C(=O)O)cc1
    2.2	0.0155	1.4	-6.9

Gathered by group, the compounds so far with nitrogen in an aromatic ring (5)
Values run as follows: PD-1 reversal	YB-1 expr inh	Shh pathway inh	MITF inhib
#2 C[C@@H]1CN([C@@H](C)CO)C(=O)c2cc(NS(=O)(=O)c3ccccc3)ccc2O[C@H]1CN(C)Cc1ccncc1
    -0.5	0.0596	4.8	-2.4
#4 Cc1ccc(S(=O)(=O)N(C)C[C@H]2Oc3ccc(NC(=O)Cn4cnnn4)cc3CC(=O)N([C@H](C)CO)C[C@H]2C)cc1
    -2.7	-8.26	-12.9	-7.6
#6 C[C@H]1CN([C@@H](C)CO)C(=O)c2cccc(NC(=O)c3ccc(-c4nccs4)cc3)c2O[C@@H]1CN(C)C(=O)Nc1ccccc1
    -0.2	0.269	-12.2	-6.5
#8 CC(C)NC(=O)N(C)C[C@@H]1Oc2ccc(NC(=O)c3ccncc3)cc2CC(=O)N([C@@H](C)CO)C[C@@H]1C
    0.3	0.354	-8.9	-2.8
#9 COCCSc1nnc(NC(=O)c2sc3ccccc3c2Cl)s1
    0.9	.	.	-9.1

Continued:
Values run as follows: PD-1 reversal	YB-1 expr inh	Shh pathway inh	MITF inhib
#11 O=C(NC(=S)Nc1ccc(Cl)c(C(=O)O)c1)c1cccc(COc2ccccc2)c1
    -0.2	.	.	-3.2
#12 Cc1noc(C)c1NC(=O)N(C)C[C@H]1Oc2ccc(NC(=O)C3CC3)cc2C(=O)N([C@H](C)CO)C[C@H]1C
    1.7	0.129	-17.1	-5.1
#13 COc1ccc(-c2coc3cc(O[C@@H]4O[C@H](CO)[C@@H](O)[C@H](O)[C@H]4O)ccc3c2=O)cc1
    .	0.108	-16.4	.
#14 C[C@H]1CN([C@@H](C)CO)C(=O)c2cccc(NC(=O)C3CC3)c2O[C@@H]1CN(C)Cc1ccc(-c2ccccc2)cc1
    1.5	-0.888	-53.4	-14.6
#15 Cc1ccc(C)c(NC(=O)CSc2nnc(-c3ccc(N)cc3)n2C)c1
    0.2	.	.	-6.4
#16 C[C@@H]1CCCCO[C@H](CN(C)C(=O)Nc2ccc(F)cc2)[C@@H](C)CN([C@H](C)CO)C(=O)c2cc(NS(=O)(=O)c3cccs3)ccc2O1
    .	-0.563	27.4	-5.2
#17 C[C@@H]1CN([C@H](C)CO)C(=O)Cc2cc(NC(=O)NC3CCCCC3)ccc2O[C@@H]1CN(C)C(=O)Nc1ccccc1
    -1.7	0.42	28.9	-7.6
#18 Cc1cccc(NC(=O)CN2C(=O)CNC2=O)c1
    2.2	.	.	21.0
#19 C[C@@H]1CN([C@H](C)CO)C(=O)c2cccc(NC(=O)c3ccc(-c4nccs4)cc3)c2O[C@@H]1CN(C)C(=O)Nc1ccccc1
    -0.8	-0.7	-16.9	-3.6
#20 C[C@@H]1CN([C@H](C)CO)C(=O)c2cc(NC(=O)Nc3ccccc3)ccc2O[C@@H]1CN(C)C
    0.8	0.286	2.7	-11.4

Later entries
Values run as follows: PD-1 reversal	YB-1 expr inh	Shh pathway inh	MITF inhib
#21 c1ccc(Nc2ncnc3sc(-c4ccccc4)cc23)cc1
    -1.0	0.21	22.6	8.2
#22 O=C1c2ccccc2C(=O)N1/N=C/c1ccccc1
    1.9	0.16	-25.6	15.3
#23 COc1ccc(C)cc1S(=O)(=O)N(C)CC(N)=O
    3.3	.	.	-19.4
#24 CCOC(=O)c1sc(NC(=O)CSc2nccc(C)n2)c(C#N)c1C
    -1.1	.	.	3.1
#25 C[C@@H]1CN([C@@H](C)CO)C(=O)c2cc(NC(=O)CCCCCC(=O)Nc3ccccc3N)ccc2O[C@H]1CN(C)C(=O)Nc1ccc(F)cc1
    0.2	-0.285	.	-3.1
#26 C[C@H]1CN([C@@H](C)CO)C(=O)c2cc(NC(=O)Nc3ccc(F)cc3)ccc2O[C@H]1CN(C)S(=O)(=O)c1ccccc1
    -0.4	-0.683	.	-32.6
#27 CC(=O)c1cccc(NC(=O)CN(C2CCCCC2)S(=O)(=O)c2c(C)cc(C)cc2C)c1
    1.8	.	.	57.4
#28 COc1ccc(CN(C)C[C@@H]2Oc3ccc(NS(=O)(=O)c4ccc(C)cc4)cc3CC(=O)N([C@H](C)CO)C[C@H]2C)cc1
    0.1	-0.0235	.	-4.1
#29 COc1ccc(NC(=O)N(C)C[C@@H]2Oc3c(NS(=O)(=O)c4c(C)noc4C)cccc3C(=O)N([C@H](C)CO)C[C@@H]2C)cc1
    1.4	-0.797	-6.6	0.9
#30 C[C@H](CO)N1C[C@H](C)[C@@H](CN(C)S(=O)(=O)c2cn(C)cn2)Oc2ccc(NC(=O)CCCN(C)C)cc2C1=O
    0.8	-0.0471	-23.8	-5.8

Next entries:
Values run as follows: PD-1 reversal	YB-1 expr inh	Shh pathway inh	MITF inhib
#31 C[C@@H]1CN([C@@H](C)CO)C(=O)c2cc(NC(=O)Cc3ccccc3)ccc2O[C@H]1CN(C)C(=O)Nc1ccc2c(c1)OCO2
    0.0	0.06	2.0	-8.3
#32 Cc1ccc(S(=O)(=O)Nc2cc(S(=O)(=O)c3ccc(C)cc3)c(O)c3ccccc23)cc1
    -3.4	.	.	28.6
#33 COc1cccc(NC2=C(C#N)C(=O)NC(c3cccc(OC)c3O)S2)c1 (stereo unspecified)
    0.7	-0.265	8.1	3.8
#34 C[C@H](CO)N1C[C@H](C)[C@@H](CN(C)C(=O)Nc2cccc3ccccc23)Oc2c(cccc2N(C)C)C1=O
    .	-0.162	15.9	-4.8
#35 C[C@H]1CN([C@@H](C)CO)C(=O)c2cccc(NC(=O)c3ccc(-c4nccs4)cc3)c2O[C@@H]1CN(C)Cc1ccc(Cl)c(Cl)c1
    -3.7	-0.0205	46.6	49.1
#36 CCOc1ccc(-n2c(SCC(=O)c3ccc(Br)cc3)nnc2-c2cccnc2)cc1
    -3.3	.	.	1.7
#37 CCOc1ccc(-n2c(C)nnc2SCC(=O)Nc2ccc(Br)cc2F)cc1
    0.1	.	.	4.5
#38 Cc1sc(N)nc1C12CC3CC(CC(C3)C1)C2
    -0.5	0.128	24.0	10.0
#39 C=C1C(=O)OC2CC3(C)CCC=C(CO)C3CC12 (stereo unspecified)
    .	0.449	28.5	.
#40 CCCc1c(OCCCCc2nn[nH]n2)ccc(C(C)=O)c1O
    4.1	0.938	-51.4	9.7

(cont.)
Values run as follows: PD-1 reversal	YB-1 expr inh	Shh pathway inh	MITF inhib
#41 N#CCCn1cc(CO)c(-c2ccc(Cl)cc2)n1
    0.2	.	.	-24.2
#42 COc1ccc(NC(=O)CSc2ncnc3sc(-c4ccccc4)cc23)cc1Cl
    1.7	.	.	10.2
#43 C=CCSc1nnc(-c2ccc(C(F)(F)F)cn2)s1
    8.6	0.204	-54.1	-54.5
#44 CNC[C@H]1Oc2ccc(NC(=O)C3CC3)cc2CC(=O)N([C@H](C)CO)C[C@H]1C
    -0.6	0.0235	-15.3	-4.2
#45 Cc1cc(C(=O)Nc2ccc(S(=O)(=O)Nc3onc(C)c3C)cc2)c(C)o1
    0.2	.	.	-5.2
#46 C[C@H]1CN([C@@H](C)CO)C(=O)c2cccc(NC(=O)NC3CCCCC3)c2O[C@@H]1CN(C)Cc1ccc(-c2ccccc2)cc1
    4.4	0.295	-27.3	20.9
#47 CNC[C@H]1Oc2c(NC(=O)C3CC3)cccc2C(=O)N([C@@H](C)CO)C[C@H]1C
    0.8	0.153	17.0	-0.5
#48 C[C@H](CO)N1C[C@H](C)[C@H](CN(C)C(=O)Nc2ccc(C(F)(F)F)cc2)Oc2c(NC(=O)c3ccncc3)cccc2C1=O
    -2.9	0.385	9.8	-1.0
#49 COc1ccc(C(N)=O)cc1NC(=O)CC(O)(C(F)(F)F)C(F)(F)F
    -0.5	.	.	1.2
#50 CC(O)CNc1nc2c(c(=O)n(Cc3ccccc3F)c(=O)n2C)n1C (stereo unspecified)
    0.0	.	.	-5.0

The listing continues:
Values run as follows: PD-1 reversal	YB-1 expr inh	Shh pathway inh	MITF inhib
#51 COc1ccc(S(=O)(=O)N(C)C[C@H]2Oc3ccc(NS(=O)(=O)c4c(C)noc4C)cc3C(=O)N([C@@H](C)CO)C[C@H]2C)cc1
    0.4	-0.269	4.5	-0.1
#52 CC(=O)Nc1ccc(Br)cc1-c1nc2ccccc2[nH]c1=O
    4.6	.	.	3.5
#53 Cc1ccc(S(=O)(=O)NCCSc2nnc(N)s2)cc1
    0.4	.	.	-8.9
#54 COc1ccc(S(=O)(=O)N(C)C[C@H]2Oc3ccc(NC(=O)C4CC4)cc3C(=O)N([C@H](C)CO)C[C@@H]2C)cc1
    0.2	0.303	-15.1	-1.3
#55 Cc1ccc(S(=O)(=O)Nc2ccc3c(c2)CC(=O)N([C@H](C)CO)C[C@H](C)[C@H](CN(C)Cc2ccc(Cl)c(Cl)c2)O3)cc1
    .	-0.172	.	-13.9
#56 Cc1noc(C)c1NC(=O)N(C)C[C@@H]1Oc2c(NC(=O)c3cnccn3)cccc2C(=O)N([C@@H](C)CO)C[C@H]1C
    2.4	0.0321	2.8	7.5
#57 C[C@@H]1CN([C@@H](C)CO)C(=O)Cc2cc(NS(C)(=O)=O)ccc2O[C@@H]1CN(C)Cc1ccc(C(=O)O)cc1
    0.3	-0.303	4.8	-13.8
#58 C[C@H](CO)N1C[C@H](C)[C@@H](CN(C)S(=O)(=O)c2ccccc2)Oc2c(NC(=O)Nc3cccc4ccccc34)cccc2C1=O
    .	0.7	16.1	-7.4
#59 Cc1ccccc1NC(=O)c1cnn2c(C(F)(F)F)cc(-c3ccco3)nc12
    2.3	0.153	-37.0	-17.0
#60 Cc1ccc(N(C(C)C(=O)Nc2ccc(Br)cc2F)S(C)(=O)=O)cc1C (stereo unspecified)
    2.3	.	.	2.1

The results go on:
Values run as follows: PD-1 reversal	YB-1 expr inh	Shh pathway inh	MITF inhib
#61 C[C@@H]1CCCCO[C@@H](CN(C)S(=O)(=O)c2ccc(Cl)cc2)[C@@H](C)CN([C@H](C)CO)C(=O)c2cc(NC(=O)C3CCCCC3)ccc2O1
    -0.8	-0.184	.	49.4
#62 COc1ccc(S(=O)(=O)Nc2ccc3c(c2)C(=O)N([C@@H](C)CO)C[C@H](C)[C@@H](CN(C)S(=O)(=O)c2cn(C)cn2)O3)cc1
    -0.3	-0.0322	.	4.4
#63 CC(C)NC(=O)N(C)C[C@@H]1Oc2ccc(NC(=O)CCC(F)(F)F)cc2CC(=O)N([C@H](C)CO)C[C@@H]1C
    .	-0.361	1.1	-10.3
#64 C[C@H](CO)N1C[C@H](C)[C@@H](CN(C)C(=O)Nc2ccccc2)Oc2c(NC(=O)Nc3ccc4c(c3)OCO4)cccc2C1=O
    -2.5	-1.12	-79.3	-24.6
#65 C[C@@H]1CCCCO[C@H](CN(C)C)[C@@H](C)CN([C@H](C)CO)C(=O)c2cc(NS(=O)(=O)c3ccccc3)ccc2O1
    0.6	0.275	51.6	7.2
#66 C[C@@H]1CN([C@H](C)CO)C(=O)c2cccc(N(C)C)c2O[C@H]1CN(C)CC1CC1
    0.1	0.163	-39.0	-9.0
#67 C[C@H]1CN([C@@H](C)CO)C(=O)c2cc(NC(=O)c3ccncc3)ccc2O[C@@H]1CN(C)S(=O)(=O)c1cccs1
    2.8	0.46	.	-9.1
#68 COc1ccc(S(=O)(=O)Nc2ccc3c(c2)CC(=O)N([C@@H](C)CO)C[C@H](C)[C@@H](CN(C)Cc2ccc(C(F)(F)F)cc2)O3)cc1
    -0.4	0.243	29.6	44.5
#69 C[C@@H]1CN([C@@H](C)CO)C(=O)Cc2cc(NC(=O)CCN3CCOCC3)ccc2O[C@@H]1CN(C)C
    0.7	0.00548	-7.4	-4.1
